Source: PubChem BioAssay (ICCB-Longwood Screening Facility, Harvard Medical School)
Mtb MbtI inh – inhibitors of Mycobacterium tuberculosis siderophore enzyme MbtI | purified MbtI enzyme, fluorescence intensity read-out | hit rate 0.89% among 100,000 | P9WFX0 | inhibition, %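 (about 17 µg/mL by stock and volumes)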;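 active = above 50% in both replicates, above 80% if mildly self-fluorescent; inactive = the rest, strongly fluorescent compounds included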;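 note: 0% = mean of negative and 100% = mean of positive controls; one replicate is shown; some compounds called inactive have numbers as strong as hits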
Mtb MenB inh – blocks the Mycobacterium tuberculosis MenB enzyme; MenB enzyme assay, absorbance read-out; some hits fall short of the stated cut; hit rate 0.43% among 100,000; P9WNP5; inhibition, %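 (about 12 µg/mL by stock and volumes)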; AID 540299;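 active = mean of two replicates above 30%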;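 note: 0% = no compound and 100% = wells with inactive enzyme; the first replicate is given; strong numbers were not always called active; inactives centre near -10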
Target sequence (P9WNP5 whole entry, looked up): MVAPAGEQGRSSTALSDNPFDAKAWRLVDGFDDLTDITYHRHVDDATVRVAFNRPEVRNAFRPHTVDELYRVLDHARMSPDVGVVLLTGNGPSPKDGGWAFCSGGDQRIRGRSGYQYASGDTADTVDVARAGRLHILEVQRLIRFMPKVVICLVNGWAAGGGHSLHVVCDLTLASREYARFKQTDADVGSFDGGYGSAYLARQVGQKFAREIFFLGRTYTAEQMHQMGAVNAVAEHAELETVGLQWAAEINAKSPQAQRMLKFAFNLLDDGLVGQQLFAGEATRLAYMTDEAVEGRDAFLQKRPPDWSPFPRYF
PV pol inh – poliovirus RNA polymerase inhibition; AID 588519; P03300; poliovirus polymerase elongation, fluorescence polarization; hits give low values; % elongation, % (compound at 16.7 µg/mL); hit rate 0.66% among 150,000; in the data active = % elongation below about 90%; note: some results filed as inactive read as strong as hits
Target sequence (P03300 1749-2209 limits assumed): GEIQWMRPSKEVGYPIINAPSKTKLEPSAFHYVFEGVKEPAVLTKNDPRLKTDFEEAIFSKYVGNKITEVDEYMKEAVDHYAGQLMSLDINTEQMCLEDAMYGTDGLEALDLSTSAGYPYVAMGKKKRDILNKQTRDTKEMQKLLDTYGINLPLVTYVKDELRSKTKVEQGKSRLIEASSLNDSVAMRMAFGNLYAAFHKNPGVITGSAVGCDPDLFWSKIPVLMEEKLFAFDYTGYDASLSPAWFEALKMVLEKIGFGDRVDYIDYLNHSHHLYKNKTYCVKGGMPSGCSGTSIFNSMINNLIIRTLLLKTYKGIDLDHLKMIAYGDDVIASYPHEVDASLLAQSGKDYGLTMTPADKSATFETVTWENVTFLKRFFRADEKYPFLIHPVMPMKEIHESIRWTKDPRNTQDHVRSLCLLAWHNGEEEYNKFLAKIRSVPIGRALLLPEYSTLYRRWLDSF
PV pol inh intensity – also measured in PV pol inh; calls as there; % elongation; measured here: total intensity read-out; formula for this scale not given here;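 total fluorescence in place of polarization; lower means less elongation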
* hit, by the source's call; . = not tested or not shown; & = joins results of further samples.

SMILES	Mtb MbtI inh	Mtb MenB inh	PV pol inh	PV pol inh intensity
CCc1ccc(NC(=O)C2CC(c3cn(CC)nc3C)=NO2)cc1 (configuration not stated)	5	-11	104	102
Cc1cc(C)n2nc(C(=O)NC34CC5CC(CC(C5)C3)C4)nc2n1	-2	-1	98	99
CCN(C(=O)c1ccc(Br)o1)C1CCS(=O)(=O)C1 (configuration not stated)	-10	-11	101	106
Cc1ccc(O)c(C(CC(=O)NCC2(c3ccccc3)CCOCC2)c2ccccc2)c1 (configuration not stated)	6	1	102	98
CC(NC(=S)NC1CCCCC1)C(c1ccccc1)N1CCN(C)CC1 (configuration not stated)	2	-21	98	107
CN(C)N1C(N)=C(C#N)C(c2cccc(Cl)c2)C2=C1CC(C)(C)CC2=O (configuration not stated)	-1	-8	101	100
O=C(Nc1ccc(I)cc1)c1nsc(Cl)c1Cl	-2	6	102	106
CCN(CC)C(=O)COc1cccc2ccccc12	10	-18	99	106
CN(C)Cc1ccccc1C(O)c1ccccc1 (configuration not stated)	-15	-13	101	102
COc1ccccc1NC(=O)Nc1nnc(N2CCCCC2C)s1 (configuration not stated)	-8	-9	101	102
CCOC(=O)c1cc2sc(C)cc2n1CC(=O)N1CCCCC1C (configuration not stated)	8	-51	104	104
C/C(=N\NC(=S)N1CCCC1)c1ccccc1	2	-89	100	102
C=CC1C[C@H]2CCC1C[C@@H]2C(O)c1ccnc2ccc(OC)cc12 (some centres not stated)	.	-3	102	102
CC(=O)N1CC(C)C(=O)Nc2ccccc21 (configuration not stated)	.	-10	108	115
COC(=O)c1ccc2c(=O)n(CCN3CCOCC3)c(SCC(=O)Nc3ccccc3OC)nc2c1	5	14	101	100
O=S(=O)(NCCc1cccs1)c1ccc2ccccc2c1	5	10	101	102
CC(Sc1n[nH]c(N)n1)C(=O)C12CC3CC(CC(C3)C1)C2 (configuration not stated)	17	6	102	99
Cc1ccc(C(=O)Oc2ccccc2N2CCOCC2)cc1	3	-19	100	100
O=C(Cn1c(=O)n(-c2ccccc2)c(=O)n1CC(=O)N1CCOCC1)N1CCOCC1	-4	-13	102	102
Cc1ccccc1NC(=O)CCCn1c(=O)c2cccn2c2ccccc21	1	-9	100	105
C/C(=N\OCc1nc2c3cnn(C)c3ncn2n1)c1cccs1	6	6	104	110
CCOC(=O)N1CCN(C(=O)CCN2C(=O)/C(=C\c3ccco3)SC2=S)CC1	15	-38	102	103
COCCN1Cc2cccc(C(=O)NCc3ccc(C)cc3)c2C1=O	-8	-2	100	103
CCc1ccccc1NC(=O)CN1CCN(Cn2c(=O)oc3ccccc32)CC1	1	10	101	107
O=C(c1cc(O)ccc1O)c1coc2ccc(O)cc12	100*	13	101	104
Cc1cccc(C(=O)N[C@H](C(=O)Nc2nc3ccccc3[nH]2)C(C)C)c1	-20	-5	103	104
Cc1cccc(N(CC(=O)Nc2ccc3c(c2)oc2ccccc23)S(=O)(=O)c2ccccc2)c1	.	-44	105	105
COc1cccc(C(CC(=O)c2ccc(Cl)cc2)C(C#N)C#N)c1 (configuration not stated)	.	-30	101	100
O=C(O)c1ccccc1OCc1nc2ccccc2s1	-3	-21	113	116
COc1ccc(-n2nc3cc(C)c(N)c(Br)c3n2)cc1	-40	-21	99	102
Cc1cc(/C=C/C(=O)O)c(C)n1-c1ccnn1C(C)C	30	9	104	101
O=C(O)COc1ccc(C=Nc2ccc3c(c2)OCO3)cc1Cl	25	3	92	101
O=C(O)C1=C(C(=O)Nc2cccc(C(F)(F)F)c2)CCCC1	1	-9	99	101
CCN1CCN(c2cc(-c3ccccc3)c3ccccc3n2)CC1	23	.	103	104
Oc1cc2c(cc1O)CN(C(=S)NCCc1ccc(Cl)cc1)CCC2	100*	-17	103&103	100&99
Cc1nc(SCC(=O)OCN2C(=O)c3ccccc3C2=O)n[nH]1	-6	29	99	102
CN(C)CC/C=C1\c2ccccc2Sc2ccc(Cl)cc21	-17	-3	99	99
O=C(CSc1ccccc1Cl)NC12CC3CC(CC(C3)C1)C2	-7	.	102	106
Cc1ccc(S(C)(=O)=O)cc1	-14	-22	102	113
CCCc1ccc(C2=C(C)SC3=NS(=O)(=O)CCN32)cc1	-6	-14	103	107

Compounds shown so far with a furan ring, fused or not, in the order listed:
SMILES	Mtb MbtI inh	Mtb MenB inh	PV pol inh	PV pol inh intensity
CCN(C(=O)c1ccc(Br)o1)C1CCS(=O)(=O)C1 (configuration not stated)	-10	-11	101	106
CCOC(=O)N1CCN(C(=O)CCN2C(=O)/C(=C\c3ccco3)SC2=S)CC1	15	-38	102	103
O=C(c1cc(O)ccc1O)c1coc2ccc(O)cc12	100*	13	101	104
Cc1cccc(N(CC(=O)Nc2ccc3c(c2)oc2ccccc23)S(=O)(=O)c2ccccc2)c1	.	-44	105	105

A draw from above in order of count of non-hydrogen atoms, smallest number first.
SMILES	Mtb MbtI inh	Mtb MenB inh	PV pol inh	PV pol inh intensity
CN(C)CC/C=C1\c2ccccc2Sc2ccc(Cl)cc21	-17	-3	99	99
O=C(CSc1ccccc1Cl)NC12CC3CC(CC(C3)C1)C2	-7	.	102	106
CCN1CCN(c2cc(-c3ccccc3)c3ccccc3n2)CC1	23	.	103	104
CCOC(=O)N1CCN(C(=O)CCN2C(=O)/C(=C\c3ccco3)SC2=S)CC1	15	-38	102	103

Continued.
SMILES	Mtb MbtI inh	Mtb MenB inh	PV pol inh	PV pol inh intensity
O=C(COC(=O)Cc1ccc(F)cc1)Nc1ccccc1	1	-12	101	106
CCOC(=O)N1CCC2(CC1)C(C#N)=C(N)OC1=C2C(=O)CCC1	.	-4	114	118
CCCCN(C(=O)c1cccc(S(=O)(=O)N2CCOCC2)c1)c1c(N)n(CCC)c(=O)[nH]c1=O	-4	-23	105	112
Cc1ccc(-c2nnn(CC(=O)c3ccc4[nH]c(=O)[nH]c4c3)n2)cc1	-4	-5	112	110
O=C(Oc1ccc(C2SCCS2)cc1)C1CCCCC1	.	-15	103	100
Cc1c2cnn(CC(=O)NCc3ccco3)c(=O)c2c(C)n1Cc1ccccc1	4	3	102	98
O=C1C2=C(Nc3[nH]c(=O)[nH]c(=O)c3C2c2cccs2)c2ccccc21 (configuration not stated)	-2	-25	101	95
N#CC1CCn2c(cc3sccc32)C1=O (configuration not stated)	54	-29	102	104
NS(=O)(=O)c1ccc(CCNC(=O)CC2(CC(=O)O)CCCCC2)cc1	-8	-14	104	108
Cc1oc(C(=O)O)cc1COc1ccc2c(-c3ccccc3)cc(=O)oc2c1	2	-18	103	102
CC1=C(C(=O)OCc2ccccc2)C(c2ccoc2)C(C#N)=C(N)S1 (configuration not stated)	.	-16	106	109
CNC(=O)c1cc(-c2ccc(OC)c(S(=O)(=O)N3CCOCC3)c2)on1	16	-11	100	102
O=C(CSc1nccc(=O)[nH]1)Nc1cccc2ccccc12	8	-23	105	104
CSc1ncc(Nc2nc(C)cs2)cn1	-8	-13	104	103
CCS(=O)(=O)N1N=C(c2ccccc2)CC1c1cc2cc3c(cc2nc1Cl)OCCO3 (configuration not stated)	48	-27	103	176
CCCCn1c(C)nc2cc(S(=O)(=O)N3CCOCC3)ccc21	-10	-14	105	105
Cc1ccc(C)n1-c1ccc(C(=O)NCC(F)(F)F)cc1	-8	-18	104	108
Oc1cncc(Cc2ccccc2)c1	-24	-15	100	101
COc1ccc(/C=N/c2nc3c(ccc4ccccc43)s2)cc1	.	-36	100	103
N#CCSc1nc2ccccc2c(=O)n1Nc1ccccc1	17	-6	102	99

Compound profiles, from the list above. Order of screens: Mtb MbtI inh	Mtb MenB inh	PV pol inh	PV pol inh intensity
Results for Cc1ccc(S(C)(=O)=O)cc1 = -14	-22	102	113
Results for O=C(O)C1=C(C(=O)Nc2cccc(C(F)(F)F)c2)CCCC1 = 1	-9	99	101
Results for O=C(Cn1c(=O)n(-c2ccccc2)c(=O)n1CC(=O)N1CCOCC1)N1CCOCC1 = -4	-13	102	102
Results for Oc1cncc(Cc2ccccc2)c1 = -24	-15	100	101
Results for O=C(Nc1ccc(I)cc1)c1nsc(Cl)c1Cl = -2	6	102	106

Additional entries:
SMILES	Mtb MbtI inh	Mtb MenB inh	PV pol inh	PV pol inh intensity
CCOC(=O)c1cn(-c2ccc(N3CCC(C)CC3)nn2)nc1N	-3	-22	103	105
O=C(NC1CC1)C(Cc1ccccc1)NS(=O)(=O)c1ccccc1F (configuration not stated)	-9	4	.	.
O=C(NCc1ccccc1)c1csc2c1CCCC2	-19	3	99	100
CC(C)(C)c1ccc(CSCC(=O)Nc2ccccc2C#N)cc1	0	-11	102	93
COc1ccc2[nH]c3c(=O)n(CCCC(=O)N4CCCC4)c(=S)[nH]c3c2c1	70	-46	100	106
CSc1ccc(S(=O)(=O)Nc2ccc(S(=O)(=O)N3CCCCCC3)cc2)cc1	-16	-25	99	102
CCCn1c(=O)c2sccc2n2c(CCCC(=O)N(C)Cc3ccco3)nnc12	-23	-1	100	103
Cn1c(=O)c2c(SCC(=O)N3CCCC3)nc(C3CC3)nc2n(C)c1=O	-16	-20	103	101
C[N+]1(CC(=O)OC2CCCCCCCCCCC2)CCCC1	8	-5	101	99
C1CCN2C(C3N4CCCCN34)N2C1 (configuration not stated)	.	-24	101	105
CC1=CCC2C(C)(CC[C@H](O)C2(C)C)C1COc1ccc2ccc(=O)oc2c1 (some centres not stated)	.	-29	99	102
NC1=NC(=O)/C(=C\c2cc3ccccc3nc2N2CCCCC2)S1	1	-7	102	107
Cc1cc(/C=C(\C#N)C(=O)C(C)(C)C)c(C)n1-c1ccc(I)cc1	-2	-12	112	111
CCCCN1C(=O)CC(C(=O)O)C1c1ccc(OC)cc1 (configuration not stated)	1	13	105	103
Cn1cc(CCC(=O)NC2CCCCC2)c2ccccc21	-8	-19	101	97
CC12CN(Cc3ccccc3)CC(C)(CN(Cc3ccccc3)C1)C2=O	-10	-18	104	105
O=C(C1CCN(Cc2ccccc2)CC1)N1CCN(c2ccccc2F)CC1	3	-47	103	101
Cc1ccnc(SCC(=O)/C=C2\N(C)c3ccccc3C2(C)C)n1	-12	-35	113	120
Cc1cc(C)nc(N2NC(c3ccccc3)C(C#N)=C2O)n1 (configuration not stated)	.	-37	103	105
CCCC1=NN(C(=O)C(C)(C)C)C(=O)C1Cc1c(F)cccc1Cl (configuration not stated)	-10	-10	106	103

Shown with two lines to a compound: part of the list above
Below each compound – Mtb MbtI inh | Mtb MenB inh | PV pol inh | PV pol inh intensity
CC12CN(Cc3ccccc3)CC(C)(CN(Cc3ccccc3)C1)C2=O
    -10 | -18 | 104 | 105
CCCC1=NN(C(=O)C(C)(C)C)C(=O)C1Cc1c(F)cccc1Cl (configuration not stated)
    -10 | -10 | 106 | 103
